Six1-Eya2 blk: Six1/Eya2 interaction inhibition; 0.56% of 360,000 active; activity change, % (test concentration not listed); AlphaScreen GST-Six1/His-Eya2 binding, biochemical; hits give low values; control for the full effect not named in the record; AID 651725; Q15475+O00167; in the data active = activity change below about -65%; inconclusive = about -30% to -65%; inactive = above about -30%; note: % is set by controls: 0 for no effect and ±100 for the full control effect; compound concentration not given in the record
Target sequence (O00167 whole entry, looked up): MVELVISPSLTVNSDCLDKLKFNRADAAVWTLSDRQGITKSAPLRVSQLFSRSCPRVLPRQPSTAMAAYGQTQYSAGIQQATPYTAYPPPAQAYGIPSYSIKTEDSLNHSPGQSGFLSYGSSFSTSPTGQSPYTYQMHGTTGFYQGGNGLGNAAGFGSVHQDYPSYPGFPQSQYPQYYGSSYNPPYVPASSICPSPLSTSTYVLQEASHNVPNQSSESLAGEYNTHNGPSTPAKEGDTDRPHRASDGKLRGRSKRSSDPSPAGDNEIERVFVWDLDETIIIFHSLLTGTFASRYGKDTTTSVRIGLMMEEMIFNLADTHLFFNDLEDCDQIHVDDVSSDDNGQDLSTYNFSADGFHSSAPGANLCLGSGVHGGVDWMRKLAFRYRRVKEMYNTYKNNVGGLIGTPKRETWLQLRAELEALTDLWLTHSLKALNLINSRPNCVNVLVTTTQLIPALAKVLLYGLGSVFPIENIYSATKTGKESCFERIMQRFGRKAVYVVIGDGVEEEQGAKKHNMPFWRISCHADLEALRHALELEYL
Target sequence (Q15475 whole entry, looked up): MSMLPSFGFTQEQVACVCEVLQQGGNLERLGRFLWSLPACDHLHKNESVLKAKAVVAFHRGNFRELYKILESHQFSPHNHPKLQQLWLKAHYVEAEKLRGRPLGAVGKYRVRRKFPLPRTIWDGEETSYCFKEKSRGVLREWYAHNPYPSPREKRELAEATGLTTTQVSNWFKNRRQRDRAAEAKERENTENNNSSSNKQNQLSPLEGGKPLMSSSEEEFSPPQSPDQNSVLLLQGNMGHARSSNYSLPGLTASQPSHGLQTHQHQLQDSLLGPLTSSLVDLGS
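GST-Six1 + His-Eya2 (5X stock: 250/500 nM); Tris pH 8.0, 300 mM NaCl, 0.05% BSA, 0.02% Tween 20; GSH donor/Ni acceptor beads; 1 h 37 °C dark; AlphaScreen readout.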
TRPV1 potentiator: enhances activation of the human vanilloid receptor TRPV1. TRPV1-expressing cells, Fluo-8 calcium influx, capsaicin EC20 potentiation; host cell line not named in the record; control for the full effect not named in the record. potentiation, % at 8.33 µM. 0.02% of 320,000 active. AID 540277; active means potentiation above 80%; inconclusive means 30% to 80%; inactive means below 30%; note: 0% is about no effect
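Fluo-8 calcium influx in TRPV1-expressing cells, kinetic read (ex 480/em 520 nm). Compound added and read 3 min for agonist activity, followed by capsaicin at EC20 final and 2 min further read for enhancement.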
Sfp PPTase inh: blocks B. subtilis Sfp PPTase activity | Biochemical Sfp PPTase activity, qHTS | Potency, µM, inactives show max response, negative = inhibition, most hits filed as inhibitors | 3.5% of 310,000 active | Q9F4F7; active = well fitted inhibition curve with a large enough effect; inconclusive = small, poorly fitted or top-dose-only effect, or another doubt; inactive = no such curve, though single readings can be large or run the other way;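 note: the enzyme is Sfp with the accession as filed and its product quenches rhodamine fluorescence; potency is the fitted concentration of half-maximal effect; 0% = enzyme reaction without inhibitor and -100% = no enzyme wells; top concentration of the series not given in the record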
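Sfp 15 nM + cpd, 15 min RT; start w/ rhodamine-CoA 5 uM, BHQ-2-YbbR 12.5 uM (final); 50 mM Hepes pH 7.6, 10 mM MgCl2, 0.01% NP-40, 0.01% BSA; read 525/598 nm at 0 and 30 min.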
D2 PAM: human D2 receptor positive allosteric modulation; P14416; DiscoveRx D2 beta-arrestin cells, luminescence, 90 min; 100% = 57 uM dopamine signal; potentiation, % (concentration not given with the values); 0.23% of 360,000 active; active = potentiation of 50% or more; inconclusive = 30% to 50%; inactive = 30% or less;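 note: compound concentration not given in the record; tested on top of an EC20 dose of dopamine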
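D2 cells co-treated with compound plus 50 nM dopamine (EC20) for 90 min at 37 deg C to detect potentiation. Beta-arrestin recruitment was read as enzyme-fragment luminescence after 1 h at ambient temperature. Full response was set by 57 uM dopamine.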
CtBP-E1A blk: CtBP/E1A binding inhibition; AlphaScreen GST-E1A/His-CtBP binding, 1536-well; hits give low values; control for the full effect not named in the record; activity change, % (no concentration beside the values); 0.49% of 340,000 active; in the data active means activity change below about -65%; inconclusive means about -30% to -65%; inactive means above about -30%; note: % is set by controls: 0 for no effect and ±100 for the full control effect; compound concentration not given in the record
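AlphaScreen with 125 nM GST-E1A and 125 nM His-CtBP (5X stocks) in Tris pH 8.0, 300 mM NaCl, BSA, Tween 20, TCEP. Compounds preincubated 2 h at 37 deg C, then glutathione donor/nickel acceptor beads added for 1 h at 37 deg C in dark.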
D2 ag: human D2 receptor agonism in beta-arrestin assay; P14416; DiscoveRx PathHunter D2 beta-arrestin, luminescence, 90 min; 100% = 57 uM dopamine signal; activation, % (test concentration not listed); 0.084% of 360,000 active; AID 624465; in the data active = activation above about 40%; inconclusive = about 15% to 40%; inactive = below about 15%; note: compound concentration not given in the record; the text of the record calls up to 30% inactive
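DiscoveRx PathHunter D2 beta-arrestin cells (2,100/well) attached overnight, then compound-stimulated 90 min at 37 C in HBSS/10 mM HEPES/0.1% Tween-20 buffer; beta-galactosidase complementation read by luminescence after 1 h at ambient temperature. Dopamine 57 uM final (EC100) as control.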
PINK1 expr mod: changes PINK1 expression. PINK1 immunofluorescence, high-content cytometry, 24 h. Potency, µM (titrated, usually from 76.6 µM), inactives show at the top dose activation (PINK1 increase), actives largely listed as activators. 0.2% of 410,000 active. AID 624263; active = well fitted activation curve with a large enough effect; inconclusive = small, poorly fitted or top-dose-only effect; inactive = flat fitted curve, though single readings scatter; cell line not stated here;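 note: potency is the fitted concentration of half-maximal effect; % of control where 0% means no effect; nearly all actives have a fitted effect of over 65% in size; a mitochondrial uncoupler was the plate control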
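Fluorescence from anti-PINK1 antibody, together with nuclear and cell stains, was scanned on a laser-scanning cytometer. Before staining, stable-line cells were incubated 24 hours with compounds at 5 concentrations; primary antibody 12 h at 10 degrees C.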
The depositor's hits bear a star; u = inconclusive; x = no result given; & = joins results of further samples; [ ] = dose if it differs, or a comment.

SMILES | Six1-Eya2 blk | TRPV1 potentiator | Sfp PPTase inh | D2 PAM | CtBP-E1A blk | D2 ag | PINK1 expr mod
Cc1onc(-c2ccccc2Cl)c1C(=O)OCn1nnc2ccccc2c1=O | -3.7 | -13.7 | -8.2% | -7.4 | 9.5 | 1.4 | x
CN(C)c1ncc(C2=C(Cl)C(=O)C(N3CCCC3)=C(Cl)C2=O)s1 | u | x | x | u | -24.2 | 3.0 | 1.4%[38.3 µM]
CCC(C(=O)NCc1cccnc1)c1ccccc1 (stereo unspecified) | -0.5 | 4.8 | 21.7% | -0.5 | 3.5 | -2.5 | -0.1%
CC(C(=O)c1ccc(Br)cc1)[n+]1cccc2ccccc21 (stereo unspecified) | -2.8 | -5.6 | 10.9% | -60.9 | x | -3.0 | 1.0%
Cc1cccc(S(=O)(=O)N(C)C[C@H]2OCc3cnnn3CCCC(=O)N([C@@H](C)CO)C[C@H]2C)c1 | 12.8 | x | x | -9.4 | -11.2 | -3.9 | 0.5%
COC(=O)c1c(Oc2nc(OC)cc(OC)n2)cccc1Oc1nc(OC)cc(OC)n1 | 7.5 | 5.6 | -9.6% | -2.5 | 15.9 | -0.3 | -0.8%
Cc1cc(Cl)ccc1C(=O)C1CCCN(C(=O)c2cccc(N3CCCC3=O)c2)C1 (stereo unspecified) | 0.1 | -12.2 | 12.5% | -6.4 | 2.3 | -2.2 | 1.1%
CC(=O)Nc1ccc(S(=O)(=O)N2CCN(c3nnnn3-c3ccccc3)CC2)cc1 | 10.6 | -13.5 | 8.7% | -0.6 | -8.1 | -0.1 | 2.2%
CC(C)N(C(=O)COC(=O)CCC(=O)c1cccs1)c1ccccc1 | 2.3 | x | x | -2.4 | -16.5 | -4.3 | -1.2%
COC(=O)c1c(C)oc2ccc(OC(=O)N3CCOCC3)cc12 | 2.0 | 2.1 | -2.7% | -30.5 | -1.5 | -5.1 | -1.0%
COc1ccc2c(C#CCCO)c(-c3ccc(S(C)(=O)=O)cc3)sc2c1 | -7.3 | x | x | -20.5 | -3.1 | -3.8 | 4.8%
Cc1c(NC(=O)C(C)N2C(=O)c3ccccc3C2=O)c(=O)n(-c2ccccc2)n1C (stereo unspecified) | 1.9 | x | 11.3% | -1.2 | 0.0 | -1.8 | 0.7%
Cc1cc(C)nc(NC(=S)Nc2ccc(Br)cc2Cl)c1 | 9.8 | -18.2 | -2.5% | -7.1 | -0.6 | 4.2 | 3.1%
N#CCCn1cc(C(=O)Nc2ccc(C(=O)O)cc2)c(-c2cccs2)n1 | -0.2 | 16.8 | -4.3% | -3.4 | x | -2.0 | -0.7%
CC(=O)c1sc(C(C)(C)C)cc1NC(=O)CCC(=O)O | 1.6 | -3.8 | 21.5% | -2.9 | -12.8 | -0.1 | 0.7%
COC(=O)c1[nH]c2cc(OC)ccc2c1NC(=O)CN1CCC(C(N)=O)CC1 | -3.4 | 6.9 | 12.0% | -15.5 | 0.2 | -1.0 | -1.1%
COc1ccc(C(=O)N/N=C\c2coc3ccc(C)cc3c2=O)cc1 | 8.3 | 7.2 | 7.8% | 3.9 | -4.4 | 0.1 | 1.3%
CCOc1ccc(NC(=O)CN(C)C(=O)c2c(C)noc2C)cc1OCC | -0.6 | -1.0 | x | -4.4 | 5.6 | -1.7 | -1.3%
CCn1c(NC(=O)Nc2cccc(C)c2C)cc2sccc21 | -13.3 | -0.6 | -0.4% | -9.1 | -9.0 | -2.5 | 0.6%
Cc1ccc(CN2CCN(Cc3ccon3)CC2CCO)cc1 (stereo unspecified) | 4.2 | 4.1 | 15.5% | -7.2 | 2.5 | -5.3 | 1.5%
CC(=O)N1c2ccc(S(=O)(=O)N3CCCC3C(=O)Nc3ccc(C)cc3)cc2CC1C (stereo unspecified) | 3.3 | 1.1 | 15.4% | -2.2 | 0.5 | 14.1 | 6.1%
COC(=O)C(Cc1ccc(O)cc1)NC(=O)CCC(=O)Nc1ccc(S(N)(=O)=O)cc1 (stereo unspecified) | -1.7 | -8.8 | 2.4% | -0.1 | 0.4 | -0.6 | -0.7%
CC(=O)Nc1ccc(NC(=O)CCn2cnnn2)cc1 | 11.1 | 5.4 | 23.7% | 2.2 | 25.1 | 1.3 | 0.1%
O=C(O)c1cc(=O)c2c(Cl)cc(Cl)cc2[nH]1 | -13.7 | x | u | 2.5 | -4.9 | -4.0 | -0.5%&1.8%
CC(C)(C)OC(=O)N(CCc1ccccc1)Cc1ccc(OCc2cccc(NC(=O)/C=C/c3ccccc3)c2)cc1 | 2.9 | x | x | x | -1.0 | -1.0 | -0.3%
CC(C)(C)c1ccc(-c2nnc(SC3CCOC3=O)n2Cc2ccccc2)cc1 (stereo unspecified) | -5.1 | -6.5 | -11.4% | -4.8 | 11.8 | -7.8 | 7.7%
Cc1cnc(C=NNC(N)=S)c2cccc(N)c12 | -78.9* | x | x | 10.3 | -2.4 | 14.5 | -6.4%
Cn1c(/C=N/c2nc3ccccc3[nH]2)nc2ccccc21 | -7.7 | -2.2 | 14.1% | -11.7 | u | 2.5 | u
COc1ccc2[nH]cc(/C=C/c3cc[n+](C)cc3)c2c1 | 11.4 | -4.1 | -3.7% | -6.6 | x | 7.8 | u
COc1cc(/C=N/NC(=O)c2nnn(-c3nonc3N)c2C)ccc1OCc1ccc(Cl)cc1 | -1.4 | x | x | -3.0 | 9.4 | -0.4 | 3.2%
O=C(NC1CCCCC1)C1CCN(S(=O)(=O)N2CCOCC2)CC1 | 0.0 | -5.1 | 1.7% | -5.8 | 9.6 | -3.1 | 7.7%[38.3 µM]
CC1CN(C(=O)N2CCOCC2)CCN1C(=O)N1CCOCC1 (stereo unspecified) | 4.4 | -4.1 | 27.2% | -0.5 | -2.3 | -4.6 | -1.6%
O=C(CC(=O)NN=Cc1ccc2c(c1)CCC2)NN=Cc1ccc2c(c1)CCC2 | 0.0 | x | x | -9.6 | -4.3 | -1.5 | -3.0%
CCOC(=O)c1c(Cc2ccccc2)c[nH]c1C | -14.1 | 1.8 | 7.6% | -3.9 | x | -5.2 | 5.3%
CC(C)CNC(=O)COC(=O)c1c2c(nc3ccccc13)CCC2 | 4.0 | 13.5 | 14.9% | 1.6 | -7.3 | -1.1 | 0.5%
CCOc1ccccc1OCCOCCN1CC(C)OC(C)C1 (stereo unspecified) | -5.5 | 5.3 | 0.2% | -12.7 | -0.3 | -1.7 | -0.7%
COc1ccc(C(C)=O)cc1COC(=O)CCNS(=O)(=O)c1ccc(C)cc1 | 2.4 | 9.8 | x | -12.7 | -3.4 | 0.7 | -2.9%
CCN1C(=O)c2ccc(C(=O)O)cc2C1=O | 3.7 | 3.8 | 7.4% | -5.1 | -0.2 | -2.4 | 1.4%
CNC(=O)CN1C(=O)NC(Cc2c[nH]c3ccccc23)C1=O (stereo unspecified) | 26.1 | -6.0 | 16.5% | -1.0 | 0.4 | -4.7 | 3.5%
Cc1cccc(-c2nnn(CC/C(N)=N/O)n2)c1 | -0.4 | -23.8 | 14.7% | -3.6 | 5.9 | -0.1 | -0.3%
Cc1cccc(NC(=O)Cn2cnc3ccc(S(=O)(=O)N4CCC(C)CC4)cc3c2=O)n1 | -0.2 | -4.4 | 1.7% | -14.9 | -2.4 | -3.2 | 1.3%
COc1ccc(OC)c(Nc2ncnc3ccc(Br)cc23)c1 | 7.1 | -14.5 | -7.9% | -3.5 | 21.3 | -6.4 | 6.8%
COc1ccc(N2CC(C(=O)N/N=C/c3ccc(C)cc3)CC2=O)cc1 (stereo unspecified) | 1.4 | -14.5 | 20.1% | -8.0 | -0.2 | -1.5 | 10.2%
CCn1c(=NC(=O)COc2ccccc2)sc2cccc(F)c21 | 4.7 | 3.0 | 20.1% | -11.5 | 7.6 | 0.6 | 6.8%
COc1ccc(S(=O)(=O)N2CCCCC2c2cc(C(=O)NC(C)C)no2)cc1 (stereo unspecified) | -3.1 | x | x | -12.0 | -1.9 | -1.3 | 1.4%
CC(C)c1nc(SCC(=O)c2ccc(F)cc2)c2ccccc2n1 | 22.1 | -2.7 | 31.6µM* | -2.7 | 7.1 | -5.3 | 6.7%
CCCCCCCCC#Cc1nc(C)ccc1OC | 33.1 | x | -0.7% | x | 34.5 | -4.2 | 9.3%
COC(C#CCCN(C)C)(c1ccccc1)c1ccccc1 | -4.3 | -2.8 | 9.5% | -34.6 | 2.8 | -4.9 | -0.4%
C=CCNc1nc2ccccc2nc1NS(=O)(=O)c1ccc(Cl)cc1 | -2.9 | -3.3 | 24.1% | 26.7 | x | 6.3 | 2.5%
CCOC(=O)CNC(=O)c1sc(NC(=O)c2ccccc2)nc1C | 9.7 | -0.2 | 9.0% | 1.2 | 2.7 | -1.2 | 0.7%
Cc1ccc(NC(=O)c2cc(C(=O)c3cc(Cl)ccc3O)cn(-c3ccc(C)cc3)c2=O)cc1 | -15.3 | -16.3 | u | 2.1 | -20.1 | 10.0 | 35.5µM*
Cc1c(-c2ccccc2)nc(N)c(C#N)c1-c1cccs1 | 5.5 | -5.9 | 32.0%[activator] | -11.4 | 5.3 | -3.9 | 17.9%
CC(=O)N(/N=C1\Sc2ccccc2C1=O)c1ccccc1 | -14.4 | -1.0 | 8.0% | -31.1 | -6.4 | -7.3 | 0.1%
O=C(CSc1nc(=O)n(CCCN2CCOCC2)c2c1CCCC2)Nc1ccc(F)c(F)c1 | -7.6 | -7.4 | x | -19.9 | -1.1 | -4.0 | 0.8%
CCC(NC(=O)CCc1nnc(-c2cc(C)on2)o1)C12CC3CC(CC(C3)C1)C2 (stereo unspecified) | -0.1 | -10.4 | -1.3% | -18.5 | -2.6 | -4.1 | 7.2%
Cc1ccc(C(=O)NC2CCCCCCC2)cc1S(=O)(=O)N1CCOCC1 | -7.4 | -8.0 | x | 1.9 | 2.5 | 3.7 | -0.5%
CC(C)CCOCC1CC2(CC(C)(c3csc(N)n3)OC2=O)C(=O)O1 (stereo unspecified) | 19.9 | -15.6 | 1.3% | -16.5 | 30.1 | -3.2 | 0.0%
COc1cccc(-c2nn(-c3ccc(C)cc3)cc2C(=O)NCC2CCCO2)c1 (stereo unspecified) | -10.9 | -14.6 | x | -24.7 | 0.8 | -3.2 | -1.0%

Screening results from PubChem BioAssay.
